High-throughput results from PubChem.
HSD17B inhib: HSD17B dehydrogenase inhibition | Q99714 | recombinant HSD17B10, NADH fluorescence kinetic; many of its hits are not listed in these tables | Potency, µM (highest dose often 57.1 µM), for the others: top-dose activity change, negative = inhibition, most hits filed as inhibitors | 75,000 tested, 7.6% active | AID 893; active = well fitted inhibition curve with a large enough effect; inconclusive = small, poorly fitted or top-dose-only effect; inactive = no such curve, though single readings can be large or run the other way;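 also: the protocol describes HADH2 (HSD17B10) and not the HSD17B4 of the title; nearly all actives have a fitted effect of over 70% in size; most hits overshoot -100% by far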
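20 nM HADH2, pH 9.0 Tris/Tween; cpd preinc 15 min RT; start w/ 1 mM NAD+ + 90 uM b-hydroxybutyryl-CoA; kinetic fluor ex360/em450 q30s x 4 min; delta last-first.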
* hit, by the source's call; ? = inconclusive; [ ] = dose if it differs, or a comment. % is scaled to controls: 0 for no effect and ±100 for the full control effect; potency is read from the fitted curve at half-maximal effect. An excerpt; count on the stated rates, not on these rows.

SMILES | HSD17B inhib
O=[n+]1c2c(n([O-])c3cc(F)ccc31)CCCC2 | ?
Cc1ccc(OCCn2c(=O)cnc3ccccc32)cc1 | ?
O=S(=O)(N1CCCCC1)n1c(Cc2ccccc2)nc2ccccc21 | -13%
CCOc1ccccc1N1CC(C(=O)Nc2ccc(C(=O)O)cc2)CC1=O (stereo unspecified) | 11%
CC1(C)CC(NC(=O)C(F)(F)F)CC(C)(C)N1OC(=O)c1ccco1 | 5%
OCCN1CCN(CCC=C2c3ccccc3Sc3ccc(Cl)cc32)CC1 | -1%[25.6 µM]
CC(=O)c1cccc(NC(=O)C2CCCN(S(=O)(=O)c3ccc(F)cc3)C2)c1 (stereo unspecified) | -5%
CC(=O)c1cccc(NC(=O)Oc2ccccc2)c1 | 10%
Cn1c(=O)cc(SCC(=O)N2CCN(Cc3ccc4c(c3)OCO4)CC2)c2ccccc21 | 10%
CC(C)(C)n1nnnc1C(c1cccs1)N(Cc1cccnc1)CC1CCCO1 (stereo unspecified) | 8%
CC(C)c1c(O)ccc2c1CCC1[C@@](C)(CO)CCC[C@@]21C (stereo partly specified) | 5%
CCOC(=O)C1CCCN(Cc2cc(Br)ccc2OC)C1 (stereo unspecified) | -1%
Cc1ccc2c(c1)N(CCCC(=O)NCC1COc3ccccc3O1)C(=O)CO2 (stereo unspecified) | 2%
CCOC(=O)C1CCCN(C/C(O)=C(\C#N)c2nc(-c3ccc(Cl)cc3)cs2)C1 (stereo unspecified) | -11%
COc1ccc(OC)c(S(=O)(=O)N2CCN(C34CC5CC(CC(C5)C3)C4)CC2)c1 | 1%
CCCc1cc(C(=O)NCC(C)C)no1 | 8%
CC1CCCCN1C(=O)c1ccc(C(=O)N2CCCCC2C)cc1 (stereo unspecified) | -4%
COc1ccc(N2CCN(CCNC(=O)CCCn3c(=O)[nH]c4cc(Cl)ccc4c3=O)CC2)cc1 | 9%
CCCC1(C(=O)O)NC(c2ccccc2O)C2C(=O)N(c3cccc(Cl)c3)C(=O)C21 (stereo unspecified) | -1%
COc1ccccc1CN(Cc1cc2c(C)ccc(C)c2[nH]c1=O)Cc1nnnn1Cc1ccco1 | ?
COc1ccc(C(NC(C)=O)c2ccc3cccnc3c2O)c(OC)c1 (stereo unspecified) | -3%
Cc1cc(NS(=O)(=O)c2ccc(NC(=O)CCCC(=O)O)cc2)nc(C)n1 | 4%
COCCN(C(=O)CNC(=O)c1cccs1)C(C(=O)NC1CCCCC1)c1ccco1 (stereo unspecified) | 6%
O=C(NCCN1CCN(Cc2ccccc2)CC1)C1c2ccccc2C(=O)N2CCc3ccccc3C12 (stereo unspecified) | 12%
O=C(O)CCCc1ccc2ccc3ccccc3c2c1 | 1%[11.4 µM]
CCOC(=O)C1CCN(C(=O)Nc2ccc(Cl)cc2)CC1 | -3%
CCCNC(=O)OC[C@@H]1O[C@H](CCO/N=C2\c3cc(OC)ccc3O[C@H](c3cccc(OC)c3)[C@H]2O)C=C[C@@H]1Oc1ccc(OC)cc1 | 9%[11.4 µM]
Cc1ccc2c(c1)N(CC(=O)N1CCCc3ccccc31)C(=O)CO2 | 4%
CCc1cc2c(=O)n(-c3ccccc3)cnc2s1 | -1%
CCOC(=O)c1c(N2C(=O)C3C4C=CC(O4)C3C2=O)sc2c1CCCC2 (stereo unspecified) | 15%
CCn1ccc(=N)cc1 | 20%
COC(=O)c1ccc(CSc2nc3ccccc3o2)cc1 | -9%
O=C1CCCN1CCCn1cnc2c([nH]c3ccc(F)cc32)c1=O | 25µM*
COc1ccc(-n2nnnc2SCC(=O)Nc2ccc3c(c2)OCCO3)c(OC)c1 | -10%
COC(=O)c1sc(N)c(C(=O)OC)c1CSc1nnnn1C | -5%
O=C(Cc1ccccc1)N1CCC(C(=O)N2CCN(c3ccc(F)cc3)CC2)CC1 | -2%
Cn1c(=O)c2[nH]cnc2n(-c2ccccc2)c1=O | -16%
COCCN(C(=O)CNC(=O)c1ccco1)C(C(=O)NC1CCCCC1)c1cccc(OC)c1 (stereo unspecified) | 7%
COC(=O)[C@@]1(Cc2ccccc2)[C@@H]2C(=CC(=O)[C@H]2CC(=O)C(=O)N(C)C)CN1C(=O)c1ccccc1 | -14%
Cc1ccc(CNC(=O)CSc2ncccn2)cc1 | 0%
CC(C)Cc1cc(C(=O)Nc2sc3c(c2C#N)CCCC3)no1 | ?
Cc1nn(CCCNC(=O)C2CCCO2)cc1Br (stereo unspecified) | 3%
CN(C)CCNC(=O)c1cc2ccccc2oc1=O | 32µM*
COc1ccc(OC)c(Nc2ncnc3c2cnn3-c2ccccc2)c1 | 3%
COc1ccc(C)cc1S(=O)(=O)N(C)CC(=O)NC1CCCCC1 | -13%
COc1ccc(-c2nnc(SCCc3ccccc3)n2N)cc1 | 10%
CCN(CCNC(=O)CN1CCN(Cc2ccc(Cl)cc2)C1=O)c1ccccc1 | 0%
Nc1nc(Cl)nc2c1ncn2[C@@H]1O[C@H](CO)[C@@H](O)[C@H]1O | -2%
Cc1cc(Nc2ccc(F)c(Cl)c2)n2ncnc2n1 | -19%
COc1ccc(CCNC(=O)CC2Nc3ccccc3NC2=O)cc1OC (stereo unspecified) | ?
O=C(c1cccc(C(=O)N2CCN(c3ccccc3F)CC2)c1)N1CCN(c2ccccc2F)CC1 | 2%
CN(C)Cc1ccc(C(C)(C)C)cc1-c1cc(C(C)(C)C)ccc1CN(C)C | 2%[11.4 µM]
COc1ccc(S(=O)(=O)Nc2cc(C)ccc2OC)cc1C | 1%
CN(C)S(=O)(=O)c1cccc(C(=O)NCC2CCCO2)c1 (stereo unspecified) | 5%
O=C=Nc1ccc(Cc2ccc(N=C=O)cc2)cc1 (tested in a mixture with another compound) | 5%[11.4 µM]
COCCOC(=O)C1=C(C)NC2=C(C(=O)CCC2)C1c1cc2c(cc1Br)OCO2 (stereo unspecified) | 25µM*
CCOC(=O)c1cc2sc(C)cc2n1CC(=O)N1CCN(C(=O)c2ccco2)CC1 | -1%
CCCCNC(=O)Nc1ccccc1C(=O)NCc1ccco1 | -12%
Cc1cccc(OCCCC(=O)Nc2ccc(S(=O)(=O)Nc3onc(C)c3C)cc2)c1 | 4%
Cc1nc(CN2CCCC2=NC#N)n(-c2ccccc2)n1 | 3%
Next section:
SMILES | HSD17B inhib
C[C@@H](C(=O)Nc1ccc2ccccc2c1)[C@H]1C[C@]1(C)[C@H](NP(=O)(c1ccccc1)c1ccccc1)c1ccccc1 | 6%
Cc1nnc(NC(=O)Cc2cccs2)s1 | ?
COc1cc2c(cc1OC)C(C(=O)NCc1cccnc1)C(c1cccnc1)N(C)C2=O (stereo unspecified) | 2%
CC(c1ccccc1)C1CC(=O)N(c2ccc(C(=O)O)cc2)C1=O (stereo unspecified) | 11%
COc1cccc(C(=O)CSc2nnc(-c3cc(OC)cc(OC)c3)o2)c1 | 11%
Cc1cc(C)n(C(=O)CSc2nnc(SCC(=O)n3nc(C)cc3C)s2)n1 | 0%
O=C(CSc1nc2c(c(=O)n1-c1ccc(Cl)cc1)SCC2)NCC1CCCO1 (stereo unspecified) | -4%
Nc1c(N2CCCC2)cc(Cl)c2nonc12 | -21%
COc1ccc(-c2cc(C(=O)N3CCc4ccccc4C3)no2)cc1OC | -10%
CCc1ccc(C2N(c3ccc(OC)cc3)C(=O)C3CCCN32)cc1 (stereo unspecified) | 3%
O=C(CCCSc1nc2ccccc2[nH]1)Nc1nnc(-c2ccccc2)o1 | -9%
N#Cc1c(NC(=O)CN2CCOCC2)oc(-c2ccccc2)c1-c1ccccc1 | -2%
COc1cc(C)c2c(=O)cc(-c3ccccc3)oc2c1 | -4%
O=C(Cn1cc2c(n1)CCCC2)N1CCCc2ccccc21 | -9%
CCC(C)(C(=O)NC1CCCC1)N(Cc1ccco1)C(=O)c1ccc2c(c1)OCO2 (stereo unspecified) | 5%
CCOc1cccc(C(=O)N2CCCCC2c2cccnc2)c1 (stereo unspecified) | 3%
COc1ccc(C(C)C)cc1S(=O)(=O)N1CCN(C)CC1 | 4%
COc1cccc(-c2nc(NCc3ccccc3OC)c3ccccc3n2)c1 | -5%
O=C1CC(c2nc3ccccc3[nH]2)CN1Cc1ccccc1 (stereo unspecified) | -2%
Cc1ccc2c(c1C)NC(C)CC2C (stereo unspecified) | ?
Cc1ccc(S(=O)(=O)NC(=NC(C)C(=O)O)c2ccccc2)cc1 (stereo unspecified) | 2%
O=C(CSc1nc2[nH]ncc2c(=O)n1-c1ccccc1Br)NCc1ccco1 | -7%
CCOc1ccc(NS(=O)(=O)c2ccc3[nH]cc(C(=O)NCCOC)c(=O)c3c2)cc1 | ?
Clc1ccccc1C(c1nnnn1Cc1ccco1)N1CCN(Cc2ccco2)CC1 (stereo unspecified) | -24%
CCCn1c(Sc2nnnn2-c2ccccc2)n[nH]c1=O | 0%
COc1ccc(NC(=O)Nc2ccc(N3CCCC3=O)cc2)cc1OC | -3%
O=c1c(-c2ccc(F)cc2)coc2cc(O)ccc12 | 32µM*
Cc1cccc(OCCNC(=O)c2ncn[nH]2)c1 | 4%
COc1ccc(-c2noc(CCC(=O)N(C)c3cccc(C)c3)n2)cc1 | 0%
Cc1nnc(SCc2nnc(-c3ccccc3Br)o2)n1-c1ccccc1 | -16%
CC(=O)Oc1ccc2c(c1)CCC1C2CC[C@]2(C)C(=O)CCC12 (stereo partly specified) | 11%
O=C(CSc1nnc(Cc2ccccc2)o1)NCCc1ccccc1 | 7%
O=c1cc(-c2ccccc2)oc2ccccc12 | -13%
CCOCCn1c(CN2CCC(Cc3ccccc3)CC2)nc2c1c(=O)n(C)c(=O)n2C | 6%
Cc1cc2oc(=O)cc(CN3CCN(Cc4ccccc4)CC3)c2cc1Cl | -3%
Cc1cc(C(=O)OCc2nc3ccccc3s2)c(C)o1 | -5%
COc1ccc(C)cc1NC(=O)c1[nH]c(C)c(C(C)=O)c1C | -12%
CCOC(=O)CNC(=O)c1ccc2[nH]c3c(c2c1)CCCC3 | -6%
Cc1cc(C)nc(N(C#N)CCOc2ccccc2)n1 | -4%
CCOC(=O)C1CCCN(C(=O)Nc2cccc(Cl)c2)C1 (stereo unspecified) | 13%

A portion taken from the entries so far, as a working copy:
SMILES | HSD17B inhib
CCOc1ccc(NS(=O)(=O)c2ccc3[nH]cc(C(=O)NCCOC)c(=O)c3c2)cc1 | ?
Clc1ccccc1C(c1nnnn1Cc1ccco1)N1CCN(Cc2ccco2)CC1 (stereo unspecified) | -24%
CCCn1c(Sc2nnnn2-c2ccccc2)n[nH]c1=O | 0%
COc1ccc(NC(=O)Nc2ccc(N3CCCC3=O)cc2)cc1OC | -3%
O=c1c(-c2ccc(F)cc2)coc2cc(O)ccc12 | 32µM*
Cc1cccc(OCCNC(=O)c2ncn[nH]2)c1 | 4%
COc1ccc(-c2noc(CCC(=O)N(C)c3cccc(C)c3)n2)cc1 | 0%
Cc1nnc(SCc2nnc(-c3ccccc3Br)o2)n1-c1ccccc1 | -16%
CC(=O)Oc1ccc2c(c1)CCC1C2CC[C@]2(C)C(=O)CCC12 (stereo partly specified) | 11%
O=C(CSc1nnc(Cc2ccccc2)o1)NCCc1ccccc1 | 7%
O=c1cc(-c2ccccc2)oc2ccccc12 | -13%
CCOCCn1c(CN2CCC(Cc3ccccc3)CC2)nc2c1c(=O)n(C)c(=O)n2C | 6%
Cc1cc2oc(=O)cc(CN3CCN(Cc4ccccc4)CC3)c2cc1Cl | -3%
Cc1cc(C(=O)OCc2nc3ccccc3s2)c(C)o1 | -5%
COc1ccc(C)cc1NC(=O)c1[nH]c(C)c(C(C)=O)c1C | -12%
CCOC(=O)CNC(=O)c1ccc2[nH]c3c(c2c1)CCCC3 | -6%
Cc1cc(C)nc(N(C#N)CCOc2ccccc2)n1 | -4%
CCOC(=O)C1CCCN(C(=O)Nc2cccc(Cl)c2)C1 (stereo unspecified) | 13%

(list continues)
SMILES | HSD17B inhib
O=C1c2ccccc2C(=O)N1CCn1c(=O)oc2ccccc21 | 5%
Cc1ccc(S(=O)(=O)NCCNC(=O)c2ccccc2)cc1 | -16%
O=C(Cn1nnc(-c2ccc(CN3CCOCC3)cc2)n1)N1CCCc2ccccc21 | -2%
O=C(OCC(=O)c1ccc(S(=O)(=O)N2CCCC2)cc1)C1=COCCO1 | 15%
Cc1ccc(-n2c(=O)cc(NCc3cccnc3)[nH]c2=O)cc1 | -2%
CCCCOC(=O)C(C)Oc1ccc(=O)n(-c2ccccc2)n1 (stereo unspecified) | -2%
CCOC(=O)c1c(C)oc2c1c(C=NCC1CCCO1)c(O)c1ccccc12 (stereo unspecified) | -7%
O=C(Nc1cnccn1)c1cccs1 | -2%
COC(=O)C/C=C/C(C)C(OCc1cccc(-c2ccccc2)c1)C1CCCCC1 (stereo unspecified) | -1%[11.4 µM]
O=C(OCc1ccc2c(c1)OCO2)c1ccc(S(=O)(=O)N2CCCC2)cc1 | -16%
CCOC(=O)CCCNC(=O)COc1ccccc1C#N | 1%
COCC#Cc1ccc(C2C(C)CCC3C(=O)N4C(CCC(C)C4c4ccc(C#CCOC)cc4)C(=O)N32)cc1 (stereo unspecified) | -5%[11.4 µM]
O=S(=O)(Nc1ccc(N2CCOCC2)nn1)c1ccccc1 | -23%
Cc1nc(SCCC(=O)O)c2ccccc2n1 | -6%
COc1ccc(-n2c(C)cc(C(=O)CSc3nn4c(=O)c(C(C)(C)C)nnc4s3)c2C)cc1 | 14%
CCCc1noc(-c2ccc(-c3ccccc3)cc2)n1 | 32µM*
CCCCCC1=C2CNC(C)(C(=O)OC)C=C2C(C)C1=O (stereo unspecified) | -27%
CCn1c(Cc2ccccc2)nnc1SCC(=O)Nc1nc2ccccc2s1 | 4%
Cc1cc(C)nc(N2CCC(C(=O)NCC3CCCCC3)CC2)n1 | 1%
c1ccc(-c2cnn3nnnc3n2)cc1 | -1%
